Source: PubChem BioAssay (several laboratories)
UCH37 inh = human UCH37 deubiquitinating enzyme inhibition; Q9Y5K5; purified proteasome/UCH37, Ub-AMC cleavage fluorescence; actives 0.33% (n = 330,000); inhibition, % (test concentration not listed);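 active means mean of two replicates above 20%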;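 further: 0% = compound-free wells with enzyme and 100% = wells lacking proteasome; stock transfer was 100 nL into about 20 µL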
Target sequence (Q9Y5K5 whole entry, looked up): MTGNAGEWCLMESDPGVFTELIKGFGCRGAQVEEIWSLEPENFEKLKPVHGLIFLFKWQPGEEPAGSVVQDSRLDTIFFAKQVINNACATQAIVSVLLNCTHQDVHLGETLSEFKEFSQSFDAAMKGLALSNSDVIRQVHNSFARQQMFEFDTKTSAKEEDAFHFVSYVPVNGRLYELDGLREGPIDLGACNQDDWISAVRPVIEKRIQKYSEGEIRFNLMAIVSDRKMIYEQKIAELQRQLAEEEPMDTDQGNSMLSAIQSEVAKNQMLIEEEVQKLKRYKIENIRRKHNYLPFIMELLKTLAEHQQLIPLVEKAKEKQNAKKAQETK
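System: Proteasome-associated human UCH37 deubiquitinase; Input: 0.15 nM proteasome in added enzyme buffer; Also added: Ub-AMC substrate from 1 µM stock; Incubation: 30 min compound-proteasome preincubation then 25 min substrate reaction, room temperature; Detection: fluorescence, ex 355 nm, em 460 nm; Read-out: % inhibition of Ub-AMC cleavage fluorescence; Benchmarks: no-proteasome and no-compound wells.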
A1 inh = inhibitors of the anti-apoptotic protein A1, read as caspase activation; caspase activation, % (no concentration beside the values); MEF A1-2A-BIM cells, Caspase-Glo 3/7 luminescence, 3 h; percent of clofoctol response, vehicle zero; actives 0.066% (n = 330,000);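 active means over half of replicate activation scores above 10%, or exactly half above 10 with the replicate mean above 10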;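 further: wells of about 30 µL received 50 nL stock; many hits fall short of the cut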
FGF22 binding = binders of recombinant human FGF22 by thermal shift; Q9HCT0; calls only at 9.99 µM; actives 1.5% (n = 340,000); AID 651658; SYPRO orange fluorescence; percent of sucrose octasulfate shift, DMSO zero;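 active means melting point raised past a set limit in the mean and every replicate; three in four hits are not shown here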
Target sequence (Q9HCT0 whole entry, looked up): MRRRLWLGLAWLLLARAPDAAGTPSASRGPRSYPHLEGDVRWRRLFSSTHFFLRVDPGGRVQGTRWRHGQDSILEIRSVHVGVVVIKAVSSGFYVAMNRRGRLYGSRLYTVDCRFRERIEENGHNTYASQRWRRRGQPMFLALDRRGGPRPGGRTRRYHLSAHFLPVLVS
rRNA inh HTS = inhibits bacterial ribosomal RNA function over humanized ribosomes; E. coli WT GFP vs humanized-ribosome RFP mutants, fluorescence, 24 h; stronger effect = lower value; DMSO median 0, no signal -100; GFP signal change (wild-type ribosome), % (no concentration beside the values); actives 1.6% (n = 350,000); AID 720706;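 active means significant combined selectivity score with lowered wild-type GFP, culture density cut under 30%, mutant RFP and density less affected; inactive means any of these conditions unmet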; further: one replicate is shown; some compounds called inactive have numbers as strong as hits
E coli growth = E. coli growth inhibition. OD600 absorbance (test concentration not listed). Escherichia coli growth, OD600, 23 h; stronger effect = lower value. actives 0.21% (n = 330,000);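 active means OD600 absorbance below the run mean of sample wells minus 3.6 SD, in any replicate, cut at about 0.56 in these data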;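 further: stock transfer was 300 nL into about 60 µL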
Beta cell apopt = blocks beta cell apoptosis. INS-1E cytokine-induced death, ATP luminescence, 48 h; percent of positive-control rescue, neutral wells zero. protection from apoptosis, % (concentration not given with the values). actives 0.8% (n = 300,000);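 active means all replicates at 75% or more, or half of them and the mean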;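 further: 0% = cytokine-treated negative control wells and 100% = positive control rescue; higher means more ATP so stronger rescue from cytokine killing; wells of about 40 µL received 100 nL stock; the first replicate is given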
T cruzi inh = blocks replication of Trypanosoma cruzi | inhibition, % (no concentration beside the values) | actives 1.4% (n = 300,000) | T. cruzi beta-gal in NIH3T3, luminescence, 90 h;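 active means mean inhibition across valid replicates above about 55%, limit read from the data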;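 further: signal also drops with host cell toxicity which is not excluded here; 0% = plate median of DMSO wells and 100% = zero luminescence signal; higher percent means less beta-gal luminescence so fewer parasites; stock transfer was 50 nL into about 50 µL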
MLL AF4-AF9 inh = MLL-AF4/AF9 protein interaction inhibition; inhibition, % at 10 µM; actives 0.47% (n = 350,000); P42568; AlphaScreen, biotin-AF4 peptide binding to FLAG-AF9;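 active means every replicate reaching a set inhibition limit, whatever the replicate mean, cut at about 25% in these data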;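 further: 0% = plate neutral control median and 100% = total signal loss; the record names both 10 and 1 µM as test concentration; the first replicate is given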
Target sequence (P42568 whole entry, looked up): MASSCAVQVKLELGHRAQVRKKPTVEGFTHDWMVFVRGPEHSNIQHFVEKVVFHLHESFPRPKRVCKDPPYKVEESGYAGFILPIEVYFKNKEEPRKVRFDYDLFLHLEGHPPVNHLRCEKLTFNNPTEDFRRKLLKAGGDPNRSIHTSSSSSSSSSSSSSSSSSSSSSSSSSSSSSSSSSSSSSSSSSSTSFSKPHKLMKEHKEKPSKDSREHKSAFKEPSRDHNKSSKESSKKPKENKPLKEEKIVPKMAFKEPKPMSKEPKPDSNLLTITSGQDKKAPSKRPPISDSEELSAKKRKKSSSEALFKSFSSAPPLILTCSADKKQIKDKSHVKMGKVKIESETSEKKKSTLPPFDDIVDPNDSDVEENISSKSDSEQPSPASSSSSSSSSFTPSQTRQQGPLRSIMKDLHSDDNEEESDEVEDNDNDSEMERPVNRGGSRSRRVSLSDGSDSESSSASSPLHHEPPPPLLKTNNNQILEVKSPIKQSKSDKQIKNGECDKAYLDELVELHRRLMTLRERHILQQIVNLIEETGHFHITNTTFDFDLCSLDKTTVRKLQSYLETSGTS
rRNA inh HTS OD600 = also measured in rRNA inh HTS; calls as there; OD600 change, %; measured here: OD600 growth;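 optical density of the mix in the first replicate; 0 = DMSO median and -100 = no signal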
rRNA inh HTS RFP = recorded beside rRNA inh HTS, whose call it bears; RFP signal change, %; measured here: RFP humanized mutant strains;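 first replicate; 0 = DMSO median and -100 = no signal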
* hit, by the source's call; i = inactive; . = not tested or not shown.

Screens in order: UCH37 inh | A1 inh | FGF22 binding | rRNA inh HTS | rRNA inh HTS OD600 | rRNA inh HTS RFP | E coli growth | Beta cell apopt | T cruzi inh | MLL AF4-AF9 inh
1) CCOCCCn1c(C)nc2c(c1=O)c1nc3ccccc3nc1n2CCC1=CCCCC1
  -3.8 | 0.2 | . | . | . | . | 0.717 | 15.6 | 50.9 | .
2) O=C(COc1ccc([N+](=O)[O-])cc1)NC(C(=O)O)C(O)c1cccc([N+](=O)[O-])c1 (centres undefined)
  6.4 | 1.8 | i | 14.2 | 14.4 | -1.0 | 0.674 | 1.9 | 0.0 | -1.0
3) COc1ccc(C2=CC(=O)C[C@H](c3ccc(Cl)cc3)C2)cn1
  5.3 | -0.4 | i | -31.8 | -53.9 | 2.2 | . | 4.6 | . | -5.7
4) COc1ccc(CNC(=O)C2(CC3CC(c4ccccc4)=NO3)CCNCC2)cc1 (centres undefined)
  1.5 | 0.7 | i | 11.4 | 2.2 | 0.4 | 0.709 | -1.7 | -0.7 | 2.3
5) O=C1c2ccccc2C(=O)N1Cc1nc(-c2ccccn2)no1
  1.1 | -0.6 | . | 11.4 | 7.9 | 9.9 | 0.664 | 0.3 | -22.5 | .
6) NC(=O)c1nsc(C(=O)N(CC(=O)NC2CCCC2)c2ccc(F)c(Cl)c2)c1N
  -24.1 | -0.4 | . | 5.9 | 8.0 | 3.3 | 0.717 | 4.2 | 2.8 | 0.4
7) CCN(CC)S(=O)(=O)c1cccc(C(=O)NCC2CCCCC2)c1
  1.6 | -0.6 | i | 3.8 | 7.2 | -3.0 | 0.661 | 3.1 | -1.1 | 0.8
8) COc1ccc(CN(Cc2ccc(C(=O)O)cc2)C(=S)Nc2ccc(C)cc2)cc1OC
  1.5 | 0.5 | i | -2.5 | -10.4 | -3.8 | 0.638 | -0.5 | -18.0 | -2.1
9) CC(C)c1cccc(C(C)C)c1NC(=O)COc1nncc2ccccc12
  2.9 | 0.1 | . | 6.3 | 12.1 | 1.7 | 0.735 | -5.8 | 2.1 | -1.9
10) O=C(CCCN1C(=O)/C(=C\c2ccco2)SC1=S)Nc1ccc(O)cc1C(=O)O
  . | 1.3 | . | -3.0 | 1.7 | 16.9 | . | -5.4 | -14.8 | -4.3
11) O=C(NC1CCCC1)C1CCCN1C(=O)Nc1ccccc1 (centres undefined)
  2.6 | 0.0 | . | . | . | . | 0.704 | 1.0 | -2.4 | .
12) CCC(C(=O)N1CCOCC1)n1c2ccccc2c2nc(=O)cc(C)n21 (centres undefined)
  -4.3 | 1.4 | i | -5.3 | -0.6 | -3.6 | 0.675 | -1.9 | -11.6 | -4.8
13) CC1CN(C(=O)Cn2c(=O)oc3ccccc32)CC(C)O1 (centres undefined)
  -0.4 | -0.9 | i | 12.2 | 13.5 | -2.0 | 0.676 | -5.6 | -10.2 | -1.3
14) COC(=O)C1CCN(C(=O)c2ccccc2Oc2ccccc2)CC1
  3.9 | . | . | . | . | . | 0.695 | 0.7 | -3.5 | .
15) COc1ccc(NC(=S)NN(C)C(=S)Nc2ccc(OC)cc2)cc1
  2.8 | -0.1 | . | . | . | . | 0.695 | 1.9 | -59.0 | .
16) O=c1c2nnn(-c3ccc(Br)cc3)c2ncn1Cc1ccccn1
  4.8 | 0.1 | i | 8.5 | 7.6 | 0.1 | 0.717 | -3.7 | 12.3 | -0.7
17) C/C(CC(=O)NC1CCCCC1)=N\NC(=O)c1ccc(Br)cc1
  . | 0.5 | i | 4.2 | 10.5 | -0.1 | . | -9.7 | -9.9 | -6.0
18) COc1cc(C#N)ccc1OC(=O)Cc1cc(OC)c(OC)c(OC)c1
  6.6 | 0.1 | i | 2.6 | 4.4 | -2.0 | 0.655 | 3.2 | -9.0 | 0.9
19) Cc1ccc(NC(=O)c2ccccc2N2C(=O)C3C4C=CC(C5CC45)C3C2=O)cc1C (centres undefined)
  1.7 | 0.1 | i | -7.8 | -5.2 | 2.3 | 0.694 | 5.2 | 3.7 | 1.8
20) COc1ccc(NC(=O)C2CC2)cc1-n1cnnn1
  -0.3 | 0.5 | . | . | . | . | 0.64 | -3.6 | -10.2 | .
21) CCNC(=O)COc1ccc(/C=N/NC(=O)c2cccnc2)cc1OC
  . | 2.2 | i | 21.2 | 21.8 | 0.4 | . | -1.4 | -5.1 | -0.4
22) CNC(=O)NC(=O)COC(=O)CCc1nc(=O)c2ccccc2n1C
  5.2 | -0.5 | i | 19.4 | 21.5 | 4.0 | 0.714 | . | 11.9 | -1.6
23) Cc1n(Cc2ccccc2)c2ccccc2[n+]1Cc1ccccc1
  1.9 | 1.2 | i | -33.7* | -15.4* | 3.7* | 0.627 | . | 41.4 | -2.1
24) Cc1ccc(NC(=O)C2C3CCC(O3)C2C(=O)O)cc1Cl (centres undefined)
  -3.3 | 0.9 | i | 3.3 | 3.5 | -0.9 | 0.673 | -1.2 | -10.1 | -4.3
25) CSc1ccc(CCNC(=O)C2CCN(c3nnc(-n4cccc4)s3)CC2)cc1
  4.6 | . | i | 1.8 | -7.2 | 5.2 | 0.764 | . | 5.2 | -1.9
26) CN(CC(=O)NCc1ccc2c(c1)OCO2)S(=O)(=O)c1ccc(Cl)cc1
  2.5 | 0.8 | i | . | . | . | 0.664 | -6.3 | . | -1.3
27) CCOc1ccccc1NC(=O)COC(=O)CC(NC(N)=O)c1ccc(Cl)cc1 (centres undefined)
  1.1 | 0.5 | i | -10.8 | -18.9 | -1.8 | 0.694 | 1.7 | 0.8 | -0.9
28) O=C(NCCc1ccccc1)c1cc2ncc(Br)cn2n1
  1.5 | 0.4 | . | . | . | . | 0.778 | -0.1 | -1.1 | .
29) O=S(=O)(O)c1ccc(O)c2cc(Nc3ccccc3)ccc12
  0.6 | . | i | . | . | . | 0.635 | . | . | 3.7
30) COc1cc(O)c2c(c1)COC2=O
  -2.8 | -0.2 | i | 20.4 | 14.6 | -6.9 | 0.694 | 3.1 | -12.6 | -1.3

One compound at a time, from the list above. Order of values: UCH37 inh	A1 inh	FGF22 binding	rRNA inh HTS	rRNA inh HTS OD600	rRNA inh HTS RFP	E coli growth	Beta cell apopt	T cruzi inh	MLL AF4-AF9 inh
`O=C1c2ccccc2C(=O)N1Cc1nc(-c2ccccn2)no1` as listed: 1.1	-0.6	.	11.4	7.9	9.9	0.664	0.3	-22.5	.
`C/C(CC(=O)NC1CCCCC1)=N\NC(=O)c1ccc(Br)cc1` as listed: .	0.5	i	4.2	10.5	-0.1	.	-9.7	-9.9	-6.0
`Cc1n(Cc2ccccc2)c2ccccc2[n+]1Cc1ccccc1` as listed: 1.9	1.2	i	-33.7*	-15.4*	3.7*	0.627	.	41.4	-2.1

New compounds follow.
Screens in order: UCH37 inh | A1 inh | FGF22 binding | rRNA inh HTS | rRNA inh HTS OD600 | rRNA inh HTS RFP | E coli growth | Beta cell apopt | T cruzi inh | MLL AF4-AF9 inh
31) Cc1cc(C(C#N)c2cccc(Cl)c2)n2ncnc2n1 (centres undefined)
  -1.6 | 0.2 | . | . | . | . | 0.675 | 8.0 | -5.0 | .
32) COc1ccc(CN2CCn3ncc(C(=O)Nc4cc(C)cc(C)c4)c3C2=O)cc1
  -23.3 | 0.2 | . | . | . | . | 0.829 | . | 0.5 | .
33) CCN1C(=O)CC(N2CCC(C(=O)N3CCCCCC3)CC2)C1=O (centres undefined)
  1.8 | 0.0 | i | 12.6 | 12.7 | 0.6 | 0.67 | -4.6 | -4.7 | 0.3
34) O=C(O)CSc1nnc(-c2cccc(S(=O)(=O)N3CCCCC3)c2)o1
  -0.7 | 0.3 | i | 10.4 | 8.2 | -6.5 | 0.624 | -2.1 | -11.9 | -1.0
35) Cc1cc(C)c(NC(=O)c2ccc(S(=O)(=O)N3CCOCC3)cc2)c(C)c1
  4.7 | 0.2 | i | 6.3 | 6.3 | 2.7 | 0.744 | 0.0 | -5.5 | -4.9
36) O=C(c1cc(Cl)nc2ccccc12)N1CCc2ccccc2C1
  4.1 | 0.3 | i | -17.2 | -12.9 | -1.4 | 0.694 | -10.2 | 7.7 | -3.8
37) O=C(NCc1ccccc1)c1nc2ccccc2s1
  0.8 | -0.3 | i | -29.7* | -17.3* | -4.7* | 0.7 | 0.6 | -7.2 | 0.2
38) C=CCSC1=N/C(=C\c2ccc3c(c2)OCO3)C(=O)S1
  0.5 | -0.9 | . | . | . | . | . | 4.2 | -18.7 | .
39) Cc1cccc(OCC(=O)NCc2cc(C)nc3ccccc23)c1
  -1.3 | 0.3 | i | 1.1 | -2.5 | 1.8 | 0.742 | -2.2 | -1.6 | -1.1
40) CCC/C(C#Cc1ccsc1)=C1/c2ccccc2C(=O)N1c1ccccc1
  1.1 | -0.4 | i | -1.6 | -5.9 | -9.4 | . | 30.3 | . | 11.7
41) Cc1cc(C)cc(NC(=O)CSc2nc3nc(C)cc(C)n3n2)c1
  1.1 | -0.2 | i | 10.6 | 9.8 | -0.9 | 0.626 | 0.0 | . | -1.0
42) CCOC(=O)c1cc(C)n(-n2cnnc2)c1C
  4.5 | 0.1 | . | . | . | . | 0.688 | -0.8 | -7.6 | .
43) C=CCN1CC(c2nc3ccccc3n2CCOc2ccccc2)CC1=O (centres undefined)
  4.6 | 0.1 | . | . | . | . | 0.678 | -3.3 | -7.6 | .
44) O=C1CN(C(=O)c2cccc(S(=O)(=O)N3CCCC3)c2)c2ccccc2N1
  1.2 | 0.6 | . | 6.7 | 8.2 | 1.9 | 0.696 | 1.7 | 2.8 | 5.0
45) COc1ccc(-c2c(-c3cc(OC)cc(OC)c3)n(C)c3ccc(-c4ccc(OC)nc4)cc23)cc1
  -48.6 | -0.2 | i | 3.6 | 9.3 | -1.3 | 0.672 | 5.5 | . | 2.6
46) O=C(N/N=C/c1cccnc1)c1ccc(CN2c3cccc4cccc(c34)S2(=O)=O)cc1
  . | -0.3 | i | -17.6* | 5.8* | -1.1* | . | 4.2 | -7.7 | 1.5
47) CC(C)C[C@H](NC(=O)C1CC(=O)N(c2ccc3c(c2)OCO3)C1)C(=O)NCc1ccco1 (some centres undefined)
  4.2 | 0.5 | i | 8.9 | 13.0 | 1.8 | 0.712 | -10.8 | 4.2 | -4.4
48) COc1ccc(CCN2C(=O)CC(NCCc3ccc(S(N)(=O)=O)cc3)C2=O)cc1OC (centres undefined)
  3.6 | 0.6 | . | . | . | . | 0.71 | -5.0 | 0.8 | .
49) CC(C)(C)OC(=O)NCC1CCN(S(=O)(=O)Cc2ccccc2)CC1
  3.4 | -0.3 | i | 3.3 | 15.4 | 4.1 | 0.66 | -6.5 | 0.6 | -14.2
50) Cc1ccc(OCc2n[nH]c(=S)n2-c2ccccc2)cc1
  0.3 | 1.6 | . | -8.3 | -17.1 | 2.7 | 0.676 | 3.0 | 5.1 | -18.0
51) CC12CCC(=O)N1C(C(=O)Nc1cccc(S(=O)(=O)N3CCCCC3)c1)CS2 (centres undefined)
  4.5 | 0.6 | i | -1.6 | -0.1 | -1.5 | 0.699 | 1.4 | -9.0 | 3.2
52) COc1ccc(C(=O)NNC(=O)CCCCC(=O)NNC(=O)c2ccc(OC)cc2)cc1
  1.0 | -0.4 | i | 22.3 | 23.1 | 3.2 | 0.677 | 1.4 | -13.0 | -1.7

A portion of the library; rates above refer to the full screens.
